ERK AVP block: blocks ERK signaling stimulated by vasopressin. HEK293-V1b, vasopressin-stimulated pERK AlphaScreen. Potency, µM (highest dose often 57.5 µM), for the others: top-dose activity, negative = inhibition, hits mostly inhibitors. actives 0.99% (n = 72,000). AID 995; further: potency means the concentration at half of the fitted maximal effect; on the % scale 0 is the no-effect control and ±100 the full control effect; nearly all actives have a fitted effect of over 55% in size
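HEK293 cells stably expressing V1b receptor, preincubated 30 min at 37 °C with compound, then stimulated 5 min with 25 nM vasopressin. Phospho-ERK by AlphaScreen SureFire after 5 h RT; normalized to DMSO and vasopressin; AC50 by Hill fit.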
Ub-GFP proteasome: inhibits proteasome, raising ubiquitin-GFP reporter fluorescence. 67,000 tested, under 10 active. AID 526. Ubiquitin-GFP reporter cells, proteasome inhibition, GFP fluorescence; response scale: untreated = 0%, 10 µM MG-132 = 100%. Potency, µM (titrated, usually from 45.9 µM), for inactives: top-dose activation (GFP accumulation), usual class: activators; active means well fitted activation curve with a large enough effect, not every such curve was filed as active; inconclusive means small, poorly fitted or top-dose-only effect, or another doubt; inactive means no such curve, though single readings can be large or run the other way; further: potency means the concentration at half of the fitted maximal effect
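GFP accumulation read-out: laser plate cytometry counting ubiquitin(G76V)-GFP-expressing U2OS cells after 4 hr compound exposure at 37 °C. Titrations spanned 46 uM to 2.9 nM; 0% = basal, 100% = 10 uM MG-132; concentration-response curves fitted.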
Luciferase inh: firefly luciferase inhibition | AID 411 | actives 2.2% (n = 72,000) | Potency, µM (titrated, usually from 57.1 µM), for inactives: at the top dose activity change, negative = inhibition, usual class: inhibitors | purified firefly luciferase, luminescence, 8 min | P08659; further: potency means the concentration at half of the fitted maximal effect; on the % scale 0 is the no-effect control and ±100 the full control effect; nearly all actives have a fitted effect of over 40% in size
Target sequence (P08659 whole entry, looked up): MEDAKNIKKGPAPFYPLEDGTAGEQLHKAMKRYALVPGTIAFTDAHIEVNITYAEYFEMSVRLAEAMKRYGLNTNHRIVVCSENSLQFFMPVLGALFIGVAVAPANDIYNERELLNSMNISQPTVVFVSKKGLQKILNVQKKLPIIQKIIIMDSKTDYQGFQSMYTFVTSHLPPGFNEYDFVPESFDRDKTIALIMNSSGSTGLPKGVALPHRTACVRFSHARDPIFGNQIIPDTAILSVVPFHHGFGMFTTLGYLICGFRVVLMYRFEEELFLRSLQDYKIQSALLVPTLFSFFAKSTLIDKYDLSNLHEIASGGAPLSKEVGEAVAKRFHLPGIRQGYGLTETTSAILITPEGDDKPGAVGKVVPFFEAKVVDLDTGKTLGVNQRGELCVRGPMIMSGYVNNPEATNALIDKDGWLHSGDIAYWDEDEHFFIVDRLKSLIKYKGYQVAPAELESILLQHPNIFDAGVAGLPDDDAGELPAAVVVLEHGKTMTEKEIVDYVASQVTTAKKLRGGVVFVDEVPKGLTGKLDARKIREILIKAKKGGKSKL
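Substrate buffer containing 10 uM ATP (pH 7.2 imidazole, Mg2+, KCl, detergent, BSA) is dispensed, compound pinned in, then luciferase/luciferin detector mix added. After 8 min at ambient temperature, light output is measured.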
CRE Fsk mod: CRE-bla signaling modulation under forskolin stimulation | CHO CRE-bla reporter (cAMP response element driving beta-lactamase), forskolin EC10, beta-lactamase ratio | Potency, µM (doses to about 38.2 µM), without a hit: at the top dose activity change, negative = inhibition, actives largely listed as activators | actives 2.5% (n = 71,000); active means well fitted activation curve with a large enough effect in the signal ratio, with a control signal flat, not every such curve was filed as active; inconclusive means small, poorly fitted or top-dose-only effect, or effect the other way, or a change in a side signal; the % refers to the signal ratio; further: potency means the concentration at half of the fitted maximal effect; % of control where 0% means no effect
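Modulation of forskolin-driven signalling is measured in CHO cells carrying a CRE-controlled beta-lactamase reporter. Cells are stimulated with EC10 NKH 477 in the presence of titrated compound for 3 h at 37 °C, then loaded with CCF4 for 2 h at room temperature.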
Tau fil binding: binders of human tau filaments; actives 2% (n = 71,000); Potency, µM (series often up to 57.1 µM), for inactives: at the highest dose activity change, negative = inhibition; recombinant tau filaments, thioflavin S fluorescence, 15 h; filaments grown with octadecylsulfate alongside compound;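 further: potency means the concentration at half of the fitted maximal effect; on the % scale 0 is the no-effect control and ±100 the full control effect; actives lower thioflavin S fluorescence by blocking filaments or displacing dye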
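Quantitative HTS: thioflavine S signal from ODS-induced tau filaments, excited at 450 nm, emission 510 nm. Conditions: 1 uM tau, 30 uM ODS, 15 h at 37 C, pH 7.4.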
HBB splicing: modulators of hemoglobin beta chain splicing | HBB splicing reporter cell assay, activation; EGFP reporter with mutant IVS2-654 intron; response scale: normalised to 500 nM splice-correcting PNA | Potency, µM (doses to about 46.1 µM), for the others: top-dose activation, hits mostly activators | actives 0.06% (n = 65,000) | AID 925; further: potency means the concentration at half of the fitted maximal effect; 0% is about no effect
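HeLa cells stably expressing EGFP interrupted by mutant beta-globin intron 2 (IVS2-654), 500/well in 2% FCS. Treated with compound for 2 days at 37C. Splicing correction scored as total well GFP intensity (488 nm excitation, 500-520 nm emission); 500 nM antisense PNA served as control.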
Epigenetic mod: epigenetic modulators derepressing GFP locus in mouse cells | mouse C127i GFP locus derepression, cytometry, 30 h | actives 0.09% (n = 68,000) | Potency, µM (highest dose often 46.1 µM), for the others: at the highest dose GFP derepression (activation); further: % of control where 0% means no effect
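Murine C127i mammary cells carrying a silenced, stably integrated CMV-driven GFP reporter were treated with compound for 30 hours at 37 C. After PBS washes, GFP-positive cells were counted by laser-scanning microplate cytometry.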
DNA Pol III inh: inhibitors of bacterial DNA polymerase III holoenzyme | actives 0.25% (n = 71,000) | Potency, µM (top dose mostly 57.1 µM), for the others: at the highest dose activity change, negative = inhibition | reconstituted DNA polymerase III holoenzyme replication, biochemical | AID 603; further: potency means the concentration at half of the fitted maximal effect; on the % scale 0 is the no-effect control and ±100 the full control effect
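Reconstituted *E. coli* holoenzyme (0.35 nM Pol III, 1 nM beta, 154 nM SSB, 2 nM primase) was preincubated with compound for 15 min at RT. Synthesis on 1.4 nM ssM13Gori ran 35 min, then was stopped with PicoGreen/EDTA and read as dsDNA fluorescence.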
ALOX15 inhib: 15-hLO (ALOX15) enzyme inhibition. P16050. purified 15hLO-1, xylenol orange hydroperoxide absorbance. Potency, µM (titrated, usually from 57.1 µM), for the others: at the top dose activity change, negative = inhibition, usual class: inhibitors. actives 1.4% (n = 74,000). AID 887; further: potency means the concentration at half of the fitted maximal effect; on the % scale 0 is the no-effect control and ±100 the full control effect; nearly all actives have a fitted effect of over 55% in size
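Quantitative HTS in 25 mM Hepes pH 7.5 containing 0.01% Triton X-100: human 15hLO-1 at 40 nM, arachidonic acid at 50 uM, 6 min turnover. Product quantified via ferrous oxidation/xylenol orange, 573:405 nm absorbance ratio.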
Hsp90 Hop PPI: changes Hsp90-Hop TPR2A binding signal, up or down; AlphaScreen TPR2A-His6 binding biotin-Hsp90 C-terminal peptide; Potency, µM (titrated, usually from 57 µM), for the others: top-dose activity change, negative = inhibition; actives 0.44% (n = 71,000); active means well fitted curve in either direction with a large enough effect; inconclusive means small, poorly fitted or top-dose-only effect, or another doubt; further: potency means the concentration at half of the fitted maximal effect; on the % scale 0 is the no-effect control and ±100 the full control effect; many of its hits are not listed in these tables
Starred values were filed as active, the others as inactive; i = inactive; ? = inconclusive; / = not tested or not shown; [ ] = remark or other dose. Unless noted, the call rests on the fitted dose curve; in most records, active means well fitted curve in the direction sought with a large enough effect; inconclusive means small, poorly fitted or top-dose-only effect, or another doubt; inactive means no such curve, though single readings can be large; an effect the other way counts as inactive or inconclusive.

SMILES	ERK AVP block	Ub-GFP proteasome	Luciferase inh	CRE Fsk mod	Tau fil binding	HBB splicing	Epigenetic mod	DNA Pol III inh	ALOX15 inhib	Hsp90 Hop PPI
Cc1ccc(C(=O)CSC2=NC(N)=C(C#N)C3(CCCCC3)C2C(N)=O)cc1 (stereo not drawn)	?	14%[9.17 µM]	-10%	?	3.2µM*	-2.2%[0.0738 µM]	-2%	-1%[11.4 µM]	?	-16%[11 µM]
COc1cccc(-c2nc(-c3ccc(NC(=O)Cc4ccccc4OC)cc3)no2)c1	8%	2%	-3%	4%	128%	0.1%	0%	6%	-9%	1%
Cc1cc(C(=O)c2cccs2)c(N)s1	-11%	1%	-3%	-6%	?	-0.5%[57.5 µM]	3%	-6%	?	-8%
CCCC(=O)Nc1sc(C(=O)OC)c(C)c1C(N)=O	-12%	-2%	-6%	?	9%	0.2%	1%	-4%	-13%	4%
Cc1nc(SCC(=O)NCc2ccco2)nc(C)c1C	21%	-5%	3%	?	19%	-6.4%	-1%	-1%	-20%	-4%
O=C(c1ccco1)n1c(=S)nc2ccccn21	1%	1%	5µM*	8%	-4%	1.4%[57.5 µM]	4%	-6%	-12%	-6%
O=C(NCC1CCCO1)C1CCCN(c2ncccn2)C1 (stereo not drawn)	11%	1%	0%	3%	0%	0.2%[57.5 µM]	2%	-5%	7%	-2%
CC(=O)C1=C(C)NC(SCC(=O)c2ccccc2)=C(C#N)C1c1ccco1 (stereo not drawn)	-18%	0%	-4%	?	99%	?	-6%	-2%	?	4%
CCN(CC(=O)NCc1ccccn1)S(=O)(=O)c1ccc(Cl)cc1	-24%	4%	-1%	1%	2%	-0.8%	5%	-1%	?	-8%
CCC(=O)c1ccc(OCC(=O)N2CCc3cc(OC)c(OC)cc3C2)cc1	-9%	1%	8%	0%	10%	-0.1%[57.5 µM]	0%	0%	-11%	0%

Part of the list above, reduced to HBB splicing and Ub-GFP proteasome.
SMILES,HBB splicing,Ub-GFP proteasome
Cc1nc(SCC(=O)NCc2ccco2)nc(C)c1C,-6.4%,-5%
O=C(c1ccco1)n1c(=S)nc2ccccn21,1.4%[57.5 µM],1%

(listing goes on)
SMILES	ERK AVP block	Ub-GFP proteasome	Luciferase inh	CRE Fsk mod	Tau fil binding	HBB splicing	Epigenetic mod	DNA Pol III inh	ALOX15 inhib	Hsp90 Hop PPI
CCCC(=O)Nc1cccc(NC(=O)c2ccc3c(c2)OCCO3)c1	37%[activator]	-3%	16µM*	?	-2%	-1.8%	2%	2%	-2%	2%
NC(=O)C1CCN(C(=S)c2cccs2)CC1	4%	5%	0%	0%	8%	-3.7%	2%	-6%	-18%	-6%
O=C(CC(Nc1ccc(F)cc1)C(=O)O)c1ccccc1 (stereo not drawn)	-6%	0%	7.9µM*	-25%	-28%	3.7%	1%	6%	?	-4%
COc1cccc(-c2ccc3ncnc(NCc4ccc(OC)cc4OC)c3c2)c1	-14%	-3%	-1%[2.29 µM]	1.6µM*	455%	0.7%	-2%[9.22 µM]	7%	-8%	-11%
CNS(=O)(=O)c1cc(OC)ccc1OC	-1%	9%	-1%	-10%	4%	-0.4%	-3%	-7%	18%	-1%
Cc1cc(NC(=O)Nc2ccc(F)c(Cl)c2)no1	-12%	1%	-2%	-18%	2%	-1.0%	5%	-2%	-1%	-1%
Cc1noc(C)c1CSc1nnc(-c2cc(Cl)ccc2Cl)n1N	-10%	-4%	2%	?	-8%	-4.0%	0%	-8%	-1%	-1%
COc1ccc(-c2nc(-c3ccc(NC(=O)c4ccc(Br)o4)cc3)no2)cc1OC	2%	-2%	-7%	?	i	-0.4%	1%	-8%	-21%	-3%
O=C(c1cc(-c2ccncc2)nc2ccc(Br)cc12)N1CCN(c2ccccn2)CC1	-26%	19%	0%	?	32µM*	3.7%	0%	11%	-8%	-13%
Cc1noc(C)c1CSc1nnc(-c2ccncc2)n1-c1ccc(Cl)c(Cl)c1	14%	-1%	2%	0%	-2%	2.3%	-2%	-2%	-6%	-4%
Cc1c2c(nc3c(C(=O)NC4CCCCC4C)cnn13)CCCC2 (stereo not drawn)	?	-2%	-1%	?	42%	4.5%	5%	2%	6%	1%
COC(=O)c1ccccc1NS(=O)(=O)c1cn(C)c(=O)n(C)c1=O	/	5%	-2%	?	18%	17%	/	-2%	?	0%
COc1ccc(-c2cc(C(N)=O)nc(N3CCCCCC3)n2)cc1	-23%	0%	7.9µM*	0%	5%	-1.4%	-2%	-6%	-17%	-5%
O=C(O)CCC(=O)Nc1ccc(-c2nnc(-c3ccco3)o2)cc1	-23%	-3%	-5%	-1%	?	-1.0%	-2%	-6%	10%	-4%
CCCOc1ccc(-c2nnc(-c3ccco3)o2)cc1	11%	2%	10µM*	19%	28%	/	1%	-1%	-3%	1%
CCN(CC)S(=O)(=O)N1CCC(C(=O)NCC2COc3ccccc3O2)CC1 (stereo not drawn)	-16%	2%	1%	-5%	-9%	-0.4%[57.5 µM]	0%	3%	-1%	-3%
CCOC(=O)N1CCC(NC(=O)c2cc3c(-c4cccc(OC)c4)nn(C)c3s2)CC1	32%[activator]	-6%	-3%	?	339%	-1.2%	0%	8%	-11%	6%
FC(F)(F)c1ccc(N2CCN(c3cc(-c4ccccc4)nc4ncnn34)CC2)nc1	0%	5%	5%	11%	36%	2.5%[57.5 µM]	1%	-1%	-6%	-2%
c1ccc(CCc2nn3c(Cn4nnc5ccccc54)nnc3s2)cc1	3%	0%	1%	?	-9%	-1.1%[57.5 µM]	-2%	7%	-16%	0%
COc1ccc(CNC(=O)C2CCCN(c3nc4ccccc4o3)C2)c(OC)c1 (stereo not drawn)	-26%	0%	1%	-8%	13%	-0.9%[57.5 µM]	0%	-3%	-15%	-1%
CCCc1cc(-c2n[nH]c(C)c2-c2ccc(C(=O)OCC)o2)c(O)cc1O	-6%	0%	1%	12%	-7%	0.0%	-3%	-8%	?	-28%
CCn1c2ccccc2c2nnc(SCC(=O)NC(C(=O)OC)C(C)C)nc21 (stereo not drawn)	12%	7%	1%	?	-9%	-0.9%	-1%	-3%	-19%	-2%
COc1ccc(Cc2nnc(NC(=O)c3c(-c4ccccc4)noc3C)s2)cc1OC	-11%	-9%	0%	?	-25%	-0.6%	2%	2%	-10%	-3%
O=c1cc[nH]c2c(C(F)(F)F)cccc12	3%	-4%	1%	-1%	-11%	-0.1%	6%	-1%	8%	1%
CCc1c(C)nc2cc(-c3ccc(OC)cc3)[nH]n2c1=O	15%	-9%	20µM*	14%	24%	0.0%	6%	-1%	12%	-2%
Cc1nc(C)c(-c2csc(NCc3ccccc3)n2)s1	-19%	-4%	-5%	?	-5%	-6.0%	-2%	-14%	-17%	-9%
CC(OC(=O)c1cc(=O)[nH]c2ccccc12)c1ccccc1 (stereo not drawn)	7%	-3%	4%	6%	-31%	8.1%	5%	0%	-16%	-7%
COc1ccc(NC(=O)CSc2nc3c(c(=O)n2-c2ccccc2OC)SCC3)cc1	/	6%	4%	8%	13%	0.2%	/	5%	-10%	-12%
CC(C)(C)c1csc(NC(=O)Cn2cnc3ccccc3c2=O)n1	-11%	0%	1%	18%	-2%	6.8%	0%	-8%	?	-2%
Cn1cccc1Cc1nnc(SCC(N)=O)n1CCc1ccccc1	-28%	3%	2%	-4%	8%	-0.5%	-3%	-2%	-5%	-5%
O=C(CCCCCN1C(=O)CCC1=O)Nc1ccc(Br)cc1F	-11%	-2%	-2%	7%	-11%	0.0%	0%	-2%	-5%	-3%
O=C(CSc1nc2c(c(=O)n1-c1ccc(F)cc1)SCC2)Nc1ccc2c(c1)OCO2	-24%	1%	-1%	8%	-11%	-0.7%	-1%	-2%	-7%	-16%
CCN(c1ccc2c(c1)OCO2)S(=O)(=O)c1cc(Br)cc2c1N(C(=O)C1CC1)CC2	-3%	-1%	-2%	17%	-23%	0.2%	2%	-4%	-22%	-12%
COc1cccc(C(=O)Nc2cccc(-c3nnc(-c4ccccc4)o3)c2)c1	-20%	-4%	?	?	298%	-0.3%	0%	2%	?	-2%
CCOC(=O)CNC(=O)C1CCCN(c2ncccn2)C1 (stereo not drawn)	-15%	-2%	-14%	-3%	-2%	0.4%[57.5 µM]	2%	1%	5%	1%
COc1ccc(OC)c(S(=O)(=O)Nc2ccc(CC(=O)O)cc2)c1	-6%	1%	1%	8%	3%	-2.3%[0.369 µM]	2%	-8%	-14%	-4%
Cc1nc2nc(-c3cccs3)cn2nc1C	-8%	/	20µM*	?	i	-1.0%[0.369 µM]	-2%	0%	-10%	-1%
CC(C)(C)c1ccc(OCC(=O)NC2CCS(=O)(=O)C2)cc1 (stereo not drawn)	-3%	17%	0%	7%	2%	-1.0%	-2%	13%	3%	-6%

These rows are one share of the data; rates above refer to the full screens.
